# Compound activity from PubChem.
# HNF4A DNA FP: change in binding of human HNF4 alpha to DNA; P41235; HNF4a-FITC DNA binding, fluorescence polarization, 1 h; activity change, % at 10 µM; 360,000 compounds, 0.3% hits; in the data active = activity change above about 30%, passing the limit was not always enough;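 also: controls were the assay level and a saturating level of protein; the project sought stronger binding though the title names inhibitors; some compounds called inactive have numbers as strong as hits; positive values seem to mean higher polarization but the record does not say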
# Target sequence (P41235 whole entry, looked up): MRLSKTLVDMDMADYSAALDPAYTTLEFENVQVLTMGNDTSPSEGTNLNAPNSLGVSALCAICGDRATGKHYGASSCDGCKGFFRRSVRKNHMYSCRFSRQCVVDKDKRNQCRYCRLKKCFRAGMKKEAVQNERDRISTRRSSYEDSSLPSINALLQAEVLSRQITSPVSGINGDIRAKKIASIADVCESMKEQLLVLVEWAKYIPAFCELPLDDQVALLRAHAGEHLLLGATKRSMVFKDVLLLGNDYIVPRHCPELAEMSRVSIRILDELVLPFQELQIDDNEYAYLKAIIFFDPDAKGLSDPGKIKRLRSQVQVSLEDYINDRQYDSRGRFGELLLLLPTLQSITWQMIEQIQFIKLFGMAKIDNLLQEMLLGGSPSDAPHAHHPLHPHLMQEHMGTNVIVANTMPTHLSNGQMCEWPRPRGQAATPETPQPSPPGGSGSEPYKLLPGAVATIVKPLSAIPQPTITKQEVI
# Vif A3G: inhibitors of Vif binding to APOBEC3G peptide, primary screen, biochemical, TR-FRET, GST-Vif 1-94, biotin-A3G peptide, dose response retest (AID 1117319). TR-FRET GST-Vif / biotin-A3G peptide binding; higher % means a stronger effect; test concentration not given here; strong numbers were not always called active. one-dose inhibition, %; IC50 in µM for titrated hits. 260,000 compounds, 0.57% hits;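 active = above the screen mean plus three standard deviations and confirmed in dose response; inconclusive = results disagree or hit not tested in dose response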;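 also: Vif residues 1-94 fused to GST binding biotinylated APOBEC3G peptide 110-148; 0% = full assay without inhibitor and 100% = GST in place of GST-Vif; retest series ran down from 100 µM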
# RanGTP-Imp inh: inhibitors of RanGTP-importin-beta interaction, primary screen, biochemical, FRET, CFP-Ran, YFP-importin-beta, homogeneous; cell-free CFP-Ran/YFP-importin-beta FRET ratio; inhibition, % (no concentration beside the values); 300,000 compounds, 1.1% hits;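 active = most replicates above 15%; inconclusive = exactly half above 15%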;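 also: 0% = DMSO wells and 100% = Ran loaded with GDP instead of GTP; wells of about 40 µL received 100 nL stock; the first replicate is given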
# E coli growth: E. coli growth inhibition; 330,000 compounds, 0.21% hits; OD600 absorbance (test concentration not listed); Escherichia coli growth, OD600, 23 h; active compounds read low; AID 1053175;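 active = OD600 absorbance below the run mean of sample wells minus 3.6 SD, in any replicate, cut at about 0.56 in these data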;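 also: stock transfer was 300 nL into about 60 µL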
# FGF22 binding: FGF22 (human) thermal shift binding; Q9HCT0; recombinant FGF22 thermal shift, SYPRO orange fluorescence; percent of sucrose octasulfate shift, DMSO zero; calls only at 9.99 µM; 340,000 compounds, 1.5% hits; AID 651658;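 active = melting point raised past a set limit in the mean and every replicate; inconclusive = no clear call; three in four hits are not shown here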
# Target sequence (Q9HCT0 whole entry, looked up): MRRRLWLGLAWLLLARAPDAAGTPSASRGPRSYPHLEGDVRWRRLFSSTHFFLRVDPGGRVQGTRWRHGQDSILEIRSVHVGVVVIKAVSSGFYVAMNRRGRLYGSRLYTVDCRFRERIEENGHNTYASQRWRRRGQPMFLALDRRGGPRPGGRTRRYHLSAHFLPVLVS
# AF4-AF9 inh: MLL-AF4/AF9 protein interaction inhibition; AlphaScreen, biotin-AF4 peptide binding to FLAG-AF9; inhibition, % at 10 µM; 350,000 compounds, 0.47% hits;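 active = every replicate reaching a set inhibition limit, whatever the replicate mean, cut at about 25% in these data; inconclusive = mean inhibition reaches that limit but some replicates miss it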;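 also: 0% = plate neutral control median and 100% = total signal loss; the record names both 10 and 1 µM as test concentration; the first replicate is given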
# UCH37 inh: blocks the human deubiquitinase UCH37; purified proteasome/UCH37, Ub-AMC cleavage fluorescence; 330,000 compounds, 0.33% hits; Q9Y5K5; inhibition, % (test concentration not listed);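 active = mean of two replicates above 20%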;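 also: 0% = compound-free wells with enzyme and 100% = wells lacking proteasome; stock transfer was 100 nL into about 20 µL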
# Target sequence (Q9Y5K5 whole entry, looked up): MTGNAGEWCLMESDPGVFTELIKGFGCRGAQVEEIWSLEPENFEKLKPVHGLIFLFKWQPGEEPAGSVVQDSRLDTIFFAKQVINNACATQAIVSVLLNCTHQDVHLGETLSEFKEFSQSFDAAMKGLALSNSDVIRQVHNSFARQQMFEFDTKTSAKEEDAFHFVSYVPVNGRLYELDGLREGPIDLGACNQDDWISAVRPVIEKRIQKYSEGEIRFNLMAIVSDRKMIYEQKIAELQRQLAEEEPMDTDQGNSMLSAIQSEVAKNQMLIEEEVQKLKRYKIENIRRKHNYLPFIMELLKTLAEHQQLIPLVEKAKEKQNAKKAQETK
#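 Test system – human UCH37 enzyme supplied as purified proteasome complex · Incubation – 30 min preincubation with enzyme, 25 min cleavage at room temperature · Detection – AMC fluorescence from Ub-AMC cleavage, excitation 355 nm, emission 460 nm · Benchmarks – no-proteasome wells (full inhibition) and compound-free wells (no inhibition)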
# * = called active by the depositor; i = inactive; ? = inconclusive; . = no result given. A portion of the library, so the mix of outcomes need not match the whole.
SMILES,HNF4A DNA FP,Vif A3G,RanGTP-Imp inh,E coli growth,FGF22 binding,AF4-AF9 inh,UCH37 inh
Cc1ccc2nc(SCC(=O)NC3CCCC3)nc(=O)n2c1,1.6,3%,4.3,0.7,i,-8.6,-11
O=c1oc2ccccc2c(N2CCCC2)c1[N+](=O)[O-],-0.5,28%,-0.8,0.69,i,-0.6,6.3
COc1ccc(S(=O)(=O)NC(C(=O)NCCc2ccccn2)C(C)C)cc1 (stereo not drawn),3.9,-6%,4.6,0.68,i,-1.3,-0.4
c1ccc([C@H]2CNCCN2CCc2cccc3ccccc23)cc1,2.4,.,.,.,i,9.5,3.5
CC1(C)C(=O)OC(c2cccs2)C2(CCCCC2)C1=O (stereo not drawn),-4.5,-3%,?,0.72,.,3.5,1.6
CC(C)CC(=O)Nc1nnc(SCC(=O)Nc2ccc3c(c2)OCO3)s1,2.4,.,1.6,0.71,.,.,0.7
CC(=O)c1ccc(OC(=O)c2ccc(Br)o2)cc1,-3.9,?,-2.4,0.67,.,.,1.6
COC(=O)C1=CN(Cc2ccc(OC)c(OC)c2)C=C(C(=O)OC)C1c1ccc(O)cc1,3.2,.,?,0.67,i,-13,i
Cc1ccc(NC(=O)COC(=O)Cn2c(C)csc2=O)cc1C,3.4,14%,-1.5,0.72,.,.,1.8
O=C(C[C@@H]1C/C=C\C[C@@H](Cc2ccc(F)cc2)C(=O)OC[C@H]2CCCN2C1=O)N[C@H](CO)Cc1ccccc1,-1.1,-5%,.,0.66,i,2.4,-1.3
O=C1/C(=C\c2cccs2)SC(=S)N1C1CCS(=O)(=O)C1 (stereo not drawn),-1.1,-9%,0.3,0.65,i,4.0,6.8
CCN(CC)C(=O)Cn1cc(C(=O)C(=O)N2CCN(Cc3ccccc3)CC2)c2ccccc21,-3.1,3%,1.0,0.66,i,-6.2,4.9
CC(NCCS(=O)(=O)c1ccc(Cl)cc1)c1cccc(Cl)c1 (stereo not drawn),0.6,.,0.0,0.65,i,-9.9,0.2
Cc1cc(Cl)ccc1OCC(=O)OC(C)C(=O)N(C)C (stereo not drawn),0.1,17%,-1.2,0.68,.,.,4.8
O=C(COC(=O)[C@@H]1CCCN1C(=O)c1cccs1)Nc1ccc(F)cc1[N+](=O)[O-],-3.3,.,2.6,0.71,i,0.2,-0.1
Nc1cc2ccncc2c2ccccc12,-7.5,-3%,11,0.6,i,-1.0,i
CC1CCc2nc3ccc(S(=O)(=O)N4CCC(C(=O)O)CC4)cc3c(C(=O)O)c2C1 (stereo not drawn),6.3,.,0.3,0.69,i,-5.8,4.1
CCN1C(=O)CC(NCc2ccc3c(c2)OCO3)C1=O (stereo not drawn),5.9,3%,-2.0,0.67,.,.,1.2
CN(Cc1nccs1)C(=O)c1ccc(OC2CCN(Cc3ccccn3)CC2)cc1,4.1,-14%,1.4,0.71,i,0.5,0.5
Cc1cc(NC(=O)c2cc(C3CC3)on2)n(-c2ccccc2)n1,1.1,-2%,-0.6,0.7,i,-2.5,3.1
CC(=O)NCCNc1nc2cc(-c3cscc3C)sc2c(=O)n1C,0.4,.,.,.,i,-5.9,.
CC(=O)Nc1ccc(NC(=O)CN2CCN(c3cccc(C(F)(F)F)c3)CC2)cc1,4.2,2%,5.9,0.76,.,.,0.2
Cc1cc(=O)[nH]c(=S)[nH]1,0.3,23%,-3.8,0.71,i,-0.3,2.8
Cc1ccc(-c2ccc(CCC(=O)O)n2C(C)C)cc1,3.2,14%,-2.7,0.73,i,-0.3,-8.8
Cc1ccc(-c2nc(C)sc2CC(=O)Nc2cccc(C)c2C)cc1,-1.3,.,-1.0,0.74,.,.,3.0

# Compound profiles (already shown). Screens in order: HNF4A DNA FP | Vif A3G | RanGTP-Imp inh | E coli growth | FGF22 binding | AF4-AF9 inh | UCH37 inh
# Cc1ccc2nc(SCC(=O)NC3CCCC3)nc(=O)n2c1 is entered as 1.6 | 3% | 4.3 | 0.7 | i | -8.6 | -11
# Cc1ccc(-c2nc(C)sc2CC(=O)Nc2cccc(C)c2C)cc1 is entered as -1.3 | . | -1.0 | 0.74 | . | . | 3.0
# c1ccc([C@H]2CNCCN2CCc2cccc3ccccc23)cc1 is entered as 2.4 | . | . | . | i | 9.5 | 3.5

# (list continues)
SMILES,HNF4A DNA FP,Vif A3G,RanGTP-Imp inh,E coli growth,FGF22 binding,AF4-AF9 inh,UCH37 inh
O=C(Nc1ccc(S(=O)(=O)N2CCCCC2)cc1)c1ccc(CN2CCOCC2)cc1,0.2,6%,0.9,0.64,.,.,2.2
CC(=O)c1ccc(N2CCN(C(=O)c3ccc(NC(=O)C4CCCO4)cc3)CC2)cc1 (stereo not drawn),0.2,16%,-0.6,0.71,.,.,3.1
CC(=O)NN1C(=O)/C(=C/c2ccc(Br)o2)SC1=S,60*,12µM*,-3.2,0.78,.,.,7.9
CN(C(=O)COC(=O)c1ccc(Cl)cc1N)C1CCCCC1,8.0,.,-0.4,0.69,i,-2.6,2.8
COc1cc(NC(=O)CN2C(=O)C(=O)N(C3CCCC3)C2=O)cc(OC)c1,3.2,.,.,0.7,i,-1.2,1.5
O=C(Nc1ccc(OCc2ccccc2)cc1)Nc1nnc([C@H]2C[C@H](O)[C@@H](CO)O2)s1,1.0,.,.,.,i,-3.0,.
O=C(CCC1CCN(C(=O)c2ccco2)CC1)NCc1ccc(F)cc1,0.0,6%,-1.6,0.73,i,1.2,0.6
COC(=O)C1CCN(S(=O)(=O)CCNC(=O)c2ccccc2)CC1,4.2,-9%,.,.,i,-2.7,.
Cc1ccc(S(=O)(=O)NC(=O)NCc2ccccc2)cc1,-2.6,7%,0.2,0.69,.,.,0.3
CCCCn1c(SCC(=O)c2ccccc2)nc2ccsc2c1=O,1.4,0%,-0.1,0.63,i,1.5,0.5
O=C(Nc1ccc2ccccc2c1)[C@@H]1C[C@H]1[C@@H](NP(=O)(c1ccccc1)c1ccccc1)c1ccccc1,-1.6,3%,.,.,i,-1.4,2.9
COc1ccc(-n2c(CN3CCN(c4ccccc4OC)CC3)nc3ccc([N+](=O)[O-])cc3c2=O)c(OC)c1,0.4,4%,-5.8,0.69,i,9.6,1.3
S=C(Nc1cccc2ccccc12)NC1CCCCC1,5.4,13%,?,0.67,i,16,4.5
Cc1ccc(C)c(N(C)S(=O)(=O)c2ccc3[nH]cc(C(=O)NCCN4CCOCC4)c(=O)c3c2)c1,-0.1,27%,-2.2,0.67,.,.,2.6
Cc1c(O)ccc2c(CN3CCN(CCO)CC3)cc(=O)oc12,0.6,.,56*,0.66,.,.,-222
O=C(Cc1cccs1)Nn1c(Cc2cccs2)nc2ccccc2c1=O,-1.2,-2%,-3.2,0.65,i,3.3,2.6
CCCC(=O)Nc1ccc2c(c1)nc(CN1CCN(C(=O)OCC)CC1)n2C,-2.6,-10%,-7.0,0.62,i,-9.1,0.4
COCCN1C(=O)c2ccccc2C(C(=O)NCCN(C)C)C1c1ccc(F)cc1 (stereo not drawn),-1.7,?,0.0,0.66,.,.,3.0
CCOC(=O)c1ccc(N2CCN(c3ccccc3F)CC2)c(NC(=O)Nc2ccccc2)c1,-2.5,.,-1.7,0.66,i,2.1,0.9
O=C(COC(=O)c1c(F)cccc1Cl)NC1CCCCC1,-1.9,2%,.,0.64,.,-1.8,1.5
Cc1ccc(SCC(=O)Nc2ccc(S(=O)(=O)Nc3ncccn3)cc2)cc1,2.4,.,7.2,0.69,i,-1.0,1.6
O=C(CCNC(=O)c1ccccc1)NNC(=O)c1ccccc1Br,0.7,.,.,0.7,i,-6.9,0.4
COc1cccc(C(=O)NCC(=O)N2CCN(c3ccc(C(F)(F)F)cn3)CC2)c1,-2.2,-3%,.,0.66,i,4.8,-1.5
O=C1C2C3C=CC(C3)C2C(=O)N1CCCCCCN1C(=O)C2C3C=CC(C3)C2C1=O (stereo not drawn),0.6,.,.,0.7,i,-2.5,0.2
Cc1cc(NC(=O)CN2C(=O)NC3(CCCCCC3)C2=O)no1,1.0,.,3.6,0.73,i,16,0.8

# Compounds above that have a furan ring, fused or not, in the order listed:
SMILES,HNF4A DNA FP,Vif A3G,RanGTP-Imp inh,E coli growth,FGF22 binding,AF4-AF9 inh,UCH37 inh
CC(=O)c1ccc(OC(=O)c2ccc(Br)o2)cc1,-3.9,?,-2.4,0.67,.,.,1.6
CC(=O)NN1C(=O)/C(=C/c2ccc(Br)o2)SC1=S,60*,12µM*,-3.2,0.78,.,.,7.9
O=C(CCC1CCN(C(=O)c2ccco2)CC1)NCc1ccc(F)cc1,0.0,6%,-1.6,0.73,i,1.2,0.6

# Next section.
SMILES,HNF4A DNA FP,Vif A3G,RanGTP-Imp inh,E coli growth,FGF22 binding,AF4-AF9 inh,UCH37 inh
Cc1ccc(NC(=S)NCc2ccc3c(c2)OCO3)cc1C,1.5,28%,3.9,0.71,i,1.4,2.0
CNC(=O)CN(c1cc(OCCOC)c(Cl)cc1Cl)S(=O)(=O)c1ccccc1,0.4,7%,-1.7,0.69,i,-2.0,0.1
Cc1ccc(NC(=O)c2nc[nH]c2C(=O)N2CCCCC2)c(C(=O)c2ccccc2)c1,-0.5,0%,3.0,0.77,.,.,6.0
COc1cc(/C=C2\SC(=Nc3ccccc3)NC2=O)cc(Cl)c1O,123,11%,-56,0.7,i,3.2,9.2
COc1ccc(NC(=O)COC(=O)c2ccc(S(=O)(=O)N3CCCCC3)cc2)c(OC)c1,-2.2,-6%,.,.,i,-1.3,.
C/C(=C\C(=O)Nc1cc(C)on1)c1ccccc1,-2.3,-1%,-0.2,0.66,.,.,5.0
CCOc1ccc(S(=O)(=O)NCCC(=O)OCC(=O)Nc2cc(C)on2)cc1,1.2,18%,6.4,0.72,i,-1.9,-2.3
CN(/N=C/c1ccccc1Cl)c1ncc(Cl)cc1C(F)(F)F,1.0,.,1.4,.,i,.,.
CCOc1ccc(NS(=O)(=O)c2ccc(C(=O)NCCCN3CCCC3=O)cc2)cc1,4.1,.,0.4,0.69,i,-4.1,4.7
CC(C)(C)OC(=O)N1CCC(c2c(C(=O)N3CCN(C4CCCCC4)CC3)cnn2-c2ccc(F)cc2)CC1,0.9,.,0.9,0.63,i,1.2,1.0
Cc1sc2ncnc(N3CCC(C(=O)NNC(=O)c4ccc(F)cc4)CC3)c2c1C,1.6,7%,0.7,0.7,i,-0.7,-0.1
CCOCCCNC(=O)Cn1cc2c(n1)CCCCC2,4.0,-5%,-2.8,0.67,i,0.4,1.5
COc1ccc(CN2CCN(c3ccccc3OC)CC2)cc1OC,4.4,.,-0.4,0.65,i,-4.6,1.5
COc1ccc(C(C)=O)cc1CSc1nnc(Nc2c(C)cccc2C)s1,5.8,21%,-1.8,0.67,i,0.6,5.4
CCn1c(=O)cc(SCC(=O)N2CCN(c3ccccc3F)CC2)c2ccccc21,0.8,20%,0.7,0.67,.,.,5.6
COc1ccc(-n2c(=O)[nH]c3cc(C(=O)NCCc4ccccc4)ccc3c2=O)cc1OC,1.9,-6%,-0.2,0.66,i,2.4,-0.9
Cc1ccc(SCCC(=O)N2CCN(S(=O)(=O)c3ccccc3)CC2)cc1,1.9,.,.,0.66,i,-0.8,-0.7
COc1ccccc1OCC(=O)NNC(=O)c1ccc2c(=O)n3c(nc2c1)CCC3,-0.2,.,0.6,0.73,i,0.5,0.9
Cc1ccc(NC(=O)CN2CCC(C(=O)c3ccc4c(c3)OCCO4)CC2)cc1,3.4,26%,2.8,0.63,.,.,1.3
COc1cc(-c2noc(C)c2C#CCO)cc(OC)c1OC,-1.2,.,3.8,0.71,i,0.6,0.5
Cc1ccc(OCCC(=O)OCC(=O)NCCc2ccc(Cl)cc2)cc1,-1.5,-7%,1.1,0.63,.,-0.7,2.0
COc1ccc(OCC(=O)Nc2ccc(N3CCOCC3)c(Cl)c2)cc1,0.3,4%,0.1,0.67,.,.,3.5
Nc1nc(C2CCCCC2)cs1,0.7,-1%,1.3,0.74,.,.,1.7
